NPYLR7 agonist – activates Aedes aegypti NPYLR7 receptor. HEK293T NPYLR7/Galpha15, GCaMP6s calcium fluorescence. activation, % at 10 µM. 270,000 compounds, 0.15% hits; in the data active means activation above about 40%;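 further: 0% = vehicle and 100% = reference agonist at the receptor; some compounds past the cut are filed as inactive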
NPYLR7 agonist max-min – recorded beside NPYLR7 agonist, whose call it bears; activation, %; measured here: Max-Min RFU normalised activation; some inactives read as strong as hits;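 span of the calcium signal over five minutes; 0% = vehicle and 100% = native peptide agonist; compound fluorescence can raise it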
Active calls of the source: *; & = joins results of further samples. The list is partial. The share of hits here may be higher or lower than overall.

Molecule | NPYLR7 agonist | NPYLR7 agonist max-min
CSc1ccc(NC(=O)C2(C)CCN2C(=O)C2(c3ccccc3)CC2)cc1 (stereo not given) | -5 | 22
O=C(C=Cc1ccc2ccccc2n1)OCc1cc(=O)n2cc(Br)ccc2n1 | 7 | 4
C=CCn1c(SCc2ccc(C(=O)O)cc2)nnc1-c1ccccc1Cl | 1 | 0
CCc1ccc(S(=O)(=O)NCC(c2ccc3c(c2)CCN3C)N2CCN(C)CC2)s1 (stereo not given) | 3 | 3
COc1cc(=O)n(-c2ccc(C)cc2)nc1C(=O)NC(c1ccccc1)c1ccccc1 | 7 | 1
O=C(Nc1ccccc1)C1CSC2(c3ccccc3)CCC(=O)N12 (stereo not given) | 11 | 9
O=C(Nc1ccc(-c2nc3ccccc3o2)c(O)c1)c1ccc(OCc2ccccc2)cc1 | -2 | -9
CC1(C(=O)NCc2ccco2)CCN1C(=O)C1(c2ccccc2)CC1 (stereo not given) | 3 | 2
CC(=O)NC1CCCN(C(=O)c2cccn2Cc2ccccc2)C1 (stereo not given) | -17 | -20
CC(C)(C)Cc1nnc(C2CCCN(C(=O)Nc3ccccc3)C2)o1 (stereo not given) | -5 | 1
O=c1ccc(S(=O)(=O)N2CCCC2)cn1CN1CCCC1c1cccs1 (stereo not given) | 1 | 3
CCn1nnc2c(N(Cc3ccccc3)Cc3ccccc3)ncnc21 | 11 | 4
CCCCCCn1c(CN2CCc3ccccc3C2)nc2c1c(=O)n(C)c(=O)n2C | 5 | 5
O=C(c1cccc2ccccc12)N1CCN(c2nccc(-c3cccc(C(F)(F)F)c3)n2)CC1 | -9 | -11
CC(C)(O)C#Cc1ccc(C(=O)N2CCCCC2CCn2cccn2)o1 (stereo not given) | 6 | 0
COC(=O)CN1C(=O)CNC12CCN(C(=O)c1c(C)noc1C)CC2 | 0 | 19
OC(CN1CCCC1)Cn1c2ccc(Cl)cc2c2cc(Cl)ccc21 (stereo not given) | -15 | -22
CCOc1ccc(-c2cc(=O)n(C)cn2)cc1 | -19 | -23
COc1ccc(S(=O)(=O)Oc2cc(CN(CC(C)C)C(=O)c3cccs3)ccc2OC)cc1 | -6 | 1
CC(=O)Nn1cc2c(=O)n(C)c(=O)n(C)c2c1 | -12 | -14
Cc1cccc(NC(=O)CCC2CCN(C(=O)COc3ccc(Cl)cc3)CC2)c1 | 8 | 4
COc1ccc(C2=Nc3nnnn3C(c3ccc(F)c(Br)c3)C2)cc1 (stereo not given) | 6 | 2
CCc1cc2c(=O)n(NC(=O)c3cccc(C)n3)cnc2s1 | 8 | 1
CCOC1CCCN(C2=NCc3cnn(C(C)(C)C)c3N2)C1 (stereo not given) | -7 | -7
CCC(=O)c1ccc(OCC(O)CN2C(SCc3ccccc3)=NC3C=CC=CC32)cc1 (stereo not given) | 5 | 13
Cc1nc(C)c(CNC(=O)c2ccccc2N2CCOCC2)s1 | 3 | 2
CCNC(=O)[C@H]1CC[C@@](C)(C(=O)NCc2cccc3[nH]ccc23)C1(C)C | 3 | -3
O=C(O)CC1S\C(=N/N=C\C=C\c2ccccc2)NC1=O (stereo not given) | -8&-15 | -13&-21
CC1CCC(NC(=O)CCC(=O)N2CCc3ccccc3C2)CC1 (stereo not given) | -9 | -11
CCCCN(C=O)c1c(CC)nc2c(OCc3cccc(Cl)c3)cccn12 | 1 | 4
c1cncc(-c2nc3c(c(NCCc4c[nH]c5ccccc45)n2)CCNC3)c1 | 3 | 4
COc1ccc(CCN(C)C(=O)c2cc3n(n2)CCN(Cc2ccc(F)cc2)C3=O)cc1OC | 10 | 11
Cc1ccc(C(=O)N2CCN(c3ccc(C(C)O)cc3F)CC2)c(C)c1 (stereo not given) | -1 | 0
Nc1nc(/C(=C/CC(=O)O)C(=O)N[C@@H]2C(=O)N3C(C(=O)O)=CCS[C@H]23)cs1 | -16 | -21
O=C(NCC1CCCCCCC1)N1CCCC(c2ncn[nH]2)C1 (stereo not given) | 1 | -1
O=S(=O)(c1ccc2c(c1)nc(SCc1c(F)ccc(F)c1Cl)n2CC1CC1)N1CCCC1 | 0 | 3
CC(=O)N1N=C(c2ccccc2)OC1C(=O)Nc1cccc(C(F)(F)F)c1 (stereo not given) | 0 | 26
Cc1ccc(-n2ncc3c(C(C)C)nn(CC(=O)N4CCC(C)CC4)c(=O)c32)cc1C | 18 | 16
COc1ccc(C2c3ccsc3CCN2C(=O)CN(C(=O)CCc2ccccc2)C2CC2)cc1 (stereo not given) | 13 | 25
O=C1CSC(=S)N1N=Cc1cc(Br)ccc1O | -1 | 0
Cc1ccc(Cl)cc1-n1c(SCc2nc(C(=O)NCc3ccc4c(c3)OCO4)cs2)nnc1-c1ccncc1 | -7 | -7
CCc1cc(CN(C)Cc2ccc(CO)o2)on1 | -1 | -2
N#CC(C(=O)CC(C1CC1)C1CC1)C(=O)NC1CC1 (stereo not given) | 1 | 8
C=CCn1c(O)c(N=NC(=O)c2ccccc2O)c2ccccc21 | 6 | -2
COc1cc(NC(=O)C(C)Sc2nnc(C(C)N(C)C)n2-c2ccc(F)cc2)cc(OC)c1 (stereo not given) | 1 | 1
CCCN1CCC(NC(=O)Nc2ccc(N3CCOC3=O)cc2)CC1 | 8 | 7
COC(=O)c1cccc(CN2C(=O)C(C)Sc3ccc(C(C)=O)cc32)c1 (stereo not given) | 9 | 5
CCc1nc2ccc(C(=O)NCCNC(C)=O)cn2c1N(C=O)CC | -7 | -11
COC(=O)C1CCN(C(c2ccc(Cl)cc2)C2Sc3nc(-c4ccco4)nn3C2=O)CC1 (stereo not given) | -3 | -6
CN1C(=O)C(=Cc2cccnc2)SC1=S | 11 | 11
CCc1cc(C(=O)O)c2c(c1)C(C)CC(C)(C)N2 (stereo not given) | -16 | -16
COc1ccccc1-c1nc2ccc(C)cn2c1NC(=O)CCCl | -3 | 2
Cc1ccc(-c2n[nH]c(=S)c3ccccc23)cc1 | 3 | 4
S=c1[nH]nc(-c2ccncc2)n1-c1ccc(Cl)cc1 | 3 | 7
CC(C(=O)Nc1ccccc1Cc1ccccc1)N1CCCC1 (stereo not given) | 7 | 4
COc1cc(NC(=O)N2CCc3ccccc3C2c2ccc(F)cc2)cc(OC)c1 (stereo not given) | 0 | 10
CCN(Cc1nc2cc(Cl)ccc2c(=O)[nH]1)C(=O)CSc1ccc(F)cc1 | 21 | 7
C#CCN(C)C(=O)c1ccc(-c2ccc(F)cc2)s1 | 4 | 16
O=C(NC1CCCC1)[C@H](Cc1ccccc1)NS(=O)(=O)c1ccc2c(c1)OCCO2 | 2 | 0
O=S(=O)(NC(=NC1CCCCC1)c1ccccc1)c1ccccc1 | -2 | -6

(next part)
Molecule | NPYLR7 agonist | NPYLR7 agonist max-min
Cc1cccc(N2CCn3c2nc2c3c(=O)n(CCN3CCOCC3)c(=O)n2C)c1C | -2 | -2
CC(C)(O)C#Cc1ccc(C(=O)NCc2ccccc2-n2ccnc2)o1 | 4 | 2
COc1cc(-c2ccc(S(C)(=O)=O)cc2)nc(OC)n1 | 6 | 0
Cc1cc(OCC(=O)Nc2ncc(C(N)=O)s2)ccc1Cl | 20 | 13
COc1ccc(CC(=O)Oc2cc(C)[nH]c(=O)c2[N+](=O)[O-])cc1 | -3 | -4
CN(CC1CC(=O)N(C(C)(C)C)C1)C(=O)CSc1nnc(N)s1 (stereo not given) | 1 | -5
OCCNc1ccc(/C=C/c2ccccc2)nn1 | 4 | 2
Nc1ccc(-c2ccccc2CO)cn1 | 8 | 4
CCCCSc1nnc2nc(C)cc(C)n12 | 0 | 9
COc1ccc(-c2nc3nc(-c4cc(OC)c(O)c(OC)c4)cc(C(=O)O)c3[nH]2)cc1 | 0 | -1
CN(CCOc1ccc(CC2SC(=O)NC2=O)cc1)c1ccccn1 (stereo not given) | -24&-6&-9 | -30&-10&-13
COc1ccc2nc(-c3ccc(C)c(NS(=O)(=O)c4ccc(C(C)=O)cc4)c3)cn2n1 | -11 | -18
CCCN(C(=O)/C=C/c1ccc([N+](=O)[O-])cc1)C(C)c1nc2ccccc2c(=O)n1-c1ccccc1CC (stereo not given) | 32 | 30
COc1cccc(-n2nnc3c(=O)n(CC(=O)NCc4ccccc4Cl)cnc32)c1 | 9 | 10
O=C(NCc1cccs1)c1cncn1-c1ccc(-c2cc(C(F)(F)F)cc(C(F)(F)F)c2)cc1 | -7 | -3
CCc1nc(Cn2ccnc2-c2ccnn2-c2ccccc2)no1 | -2 | 8
COc1cc(=O)n(-c2ccccc2C)nc1C(=O)Nc1ccc(C)cc1 | 13 | 13
CN(Cc1ccc2c(c1)OCO2)C(=O)Nc1cccc(N2CCCC2)c1 | 3 | 2
CCc1ccc(S(=O)(=O)NCCn2nc(-c3ccccc3)ccc2=O)s1 | 1 | 3
Fc1cccc(Cn2cccc2CNC2CCCCC2)c1 | -7 | -19
C=C(C)COc1ccccc1C(=O)N(C)Cc1nc(-c2ccncc2)no1 | 6 | -7
Cc1cc(=O)oc(C)c1C(=O)OCC(=O)N1c2ccccc2CCC1C (stereo not given) | 9 | 6
CCCCOCC(O)CN1CCOCC1 (stereo not given) | 6 | 4
CCN1C(=O)SC(N(CCN2C(=O)CSC2=O)c2cccc(C)c2)C1=O (stereo not given) | 13 | 9
Cn1nnc2c(SCC(=O)NC(C)(C)C)ncnc21 | 1 | 24
CCc1nnc(C(C)Sc2nnc(CCC3CCCCC3)o2)o1 (stereo not given) | -1 | -1
Cc1cnc(N2CCN(C(=O)c3ccccc3S(=O)(=O)N3CCOCC3)CC2)s1 | -2 | -3
CCn1c(=S)n(C(=O)c2ccccc2F)c2ccccc21 | -3 | -4
Cc1nn(-c2ccccc2Cl)c2sc(C(=O)N(C)CC(=O)Nc3ccccc3Cl)cc12 | -16 | -16
Cc1cc(NC(=O)C(C)Nc2ccc3c(c2)CCO3)no1 (stereo not given) | 0 | -3
Cn1cnnc1C1CCCN(C(=O)NCc2cccc(F)c2)C1 (stereo not given) | 6 | 0
Cc1cc(Br)ccc1NC(=O)CN(C)C(=O)c1cncn1-c1ccccc1 | 6 | 8
Cc1cc(C)n(CCN2C(=O)NC(CC(=O)O)C2=O)c(=O)c1C#N (stereo not given) | 2 | 53
CCOc1ccccc1NC(=O)CSc1nc2c([nH]c3ccccc32)c(=O)n1CC | 1 | 2
CCCCCN(CC(=O)Nc1cc(C(C)(C)C)nn1-c1ccc(C)cc1C)C(=O)Nc1ccc(Br)cc1 | -3 | -2
OCCn1ccnc1-c1cccc(OCc2ccccc2)c1 | 4 | -3

Full records, quoted from the list. Values in the order: NPYLR7 agonist | NPYLR7 agonist max-min
CCC(=O)c1ccc(OCC(O)CN2C(SCc3ccccc3)=NC3C=CC=CC32)cc1 (stereo not given) is listed with 5 | 13
COc1cc(NC(=O)N2CCc3ccccc3C2c2ccc(F)cc2)cc(OC)c1 (stereo not given) is listed with 0 | 10

(next part)
Molecule | NPYLR7 agonist | NPYLR7 agonist max-min
C#CCOC(=O)CN1C(=O)c2cccc3cccc(c23)C1=O | -8 | -15
COC(=O)c1ccc(C(=O)NS(=O)(=O)c2ccc(NC(C)=O)cc2)cc1 | 0 | 13
CCCn1cc(C(=O)NCc2cccnc2-n2ccnc2)c(C)n1 | 4 | 3
CC(C)(C)c1ncc(CNc2ccc(OCC(F)(F)F)nc2)s1 | 14 | 10
CCCc1nc(C)cc(N2CCN(C(=O)c3ncn[nH]3)CC2)n1 | 11 | 7
O=C1NCCCC1Nc1nccc(CCC(F)(F)F)n1 (stereo not given) | 6 | 4
Cc1ccc(C)c(C(NC(=O)c2nnc(C)o2)c2cccnc2)c1 (stereo not given) | 0 | -2
Cc1ccn(-c2ccc(Nc3ccc(NC(=O)Nc4ccccc4)cc3)nn2)n1 | -6 | -8
COc1ccc(C(=O)Nc2cccc3c2C(=O)c2ccccc2C3=O)cc1 | -4 | -10
O=C(c1csc(CSc2nnc(-c3ccco3)n2-c2ccc(F)cc2)n1)N1CCN(C/C=C/c2ccccc2)CC1 | -5 | 1
C/C=C(\C)C(=O)N1CCN(c2nc3ccccc3nc2C)CC1 | 25 | 26
Cc1cc(C(=O)NS(=O)(=O)Cc2ccc(F)cc2)no1 | 11 | 5

6 compounds picked at random from the list so far:
Molecule | NPYLR7 agonist | NPYLR7 agonist max-min
CC(C)(C)c1ncc(CNc2ccc(OCC(F)(F)F)nc2)s1 | 14 | 10
Cc1ccc(C)c(C(NC(=O)c2nnc(C)o2)c2cccnc2)c1 (stereo not given) | 0 | -2
CCCc1nc(C)cc(N2CCN(C(=O)c3ncn[nH]3)CC2)n1 | 11 | 7
O=C1NCCCC1Nc1nccc(CCC(F)(F)F)n1 (stereo not given) | 6 | 4
COc1ccc(C(=O)Nc2cccc3c2C(=O)c2ccccc2C3=O)cc1 | -4 | -10
COC(=O)c1ccc(C(=O)NS(=O)(=O)c2ccc(NC(C)=O)cc2)cc1 | 0 | 13

Further results:
Molecule | NPYLR7 agonist | NPYLR7 agonist max-min
CCCCN=C(C)c1c(O)n(CC)c(=S)n(CC)c1=O | 1 | 2
Cc1[nH]c2ccccc2c1S(=O)(=O)CCNC(=O)Nc1ccccc1C#N | -2 | -1
COc1cccc(C(=O)NCCn2ncc3c(=O)n(Cc4cccc(C)c4)cnc32)c1OC | 3 | -6
CCOC(=O)c1[nH]c(C)c(C(=O)C(C)C)c1C | -7 | -4
COC(=O)c1cc(C)sc1NC(=S)NC(C)c1cn(C)nc1C (stereo not given) | -15 | -23
CN(C)CC1CCCCN1C(=O)c1ccnc(OCC(F)(F)F)c1 (stereo not given) | 2 | -15
NC(=O)C1(C(=O)N(C/C=C/c2ccccc2)CCO)CC1 | 1 | -2
C=C(C)Cn1c(SCC(=O)OC)nc2c1c(=O)n(C)c(=O)n2C | -16 | -16
CCN(CC(=O)OC1CC(C)OC1=O)Cc1ccc(Cl)cc1 (stereo not given) | 0 | 2
NC(=O)C1CCN(C(=O)c2csc(-c3ccc(F)cc3)n2)CC1 | 0 | 1
COc1ccc(N2C(=O)C3C(C2=O)C2C=CC3C23CC3)c([N+](=O)[O-])c1 (stereo not given) | -1 | -4

A different layout for part of the listing above.
CCN(Cc1nc2cc(Cl)ccc2c(=O)[nH]1)C(=O)CSc1ccc(F)cc1
  NPYLR7 agonist: 21
  NPYLR7 agonist max-min: 7
O=C(c1csc(CSc2nnc(-c3ccco3)n2-c2ccc(F)cc2)n1)N1CCN(C/C=C/c2ccccc2)CC1
  NPYLR7 agonist: -5
  NPYLR7 agonist max-min: 1
